Cruzain inh Det: cruzain (T. cruzi) inhibition with detergent; P25779; purified cruzain, Z-FR-AMC fluorescence, 0.01% Triton; Potency, µM, for the others: max response, negative = inhibition, hits mostly inhibitors; 200,000 compounds, 0.43% hits; active = well fitted curve in the direction sought with a large enough effect; inconclusive = small, poorly fitted or top-dose-only effect, or another doubt; inactive = no such curve, though single readings can be large; an effect the other way counts as inactive or inconclusive;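 also: plate controls were neutral wells for no effect and buffer without enzyme for full effect; nearly all actives have a fitted effect of over 40% in size; top concentration of the series not given in the record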
Target sequence (P25779 123-467 limits assumed): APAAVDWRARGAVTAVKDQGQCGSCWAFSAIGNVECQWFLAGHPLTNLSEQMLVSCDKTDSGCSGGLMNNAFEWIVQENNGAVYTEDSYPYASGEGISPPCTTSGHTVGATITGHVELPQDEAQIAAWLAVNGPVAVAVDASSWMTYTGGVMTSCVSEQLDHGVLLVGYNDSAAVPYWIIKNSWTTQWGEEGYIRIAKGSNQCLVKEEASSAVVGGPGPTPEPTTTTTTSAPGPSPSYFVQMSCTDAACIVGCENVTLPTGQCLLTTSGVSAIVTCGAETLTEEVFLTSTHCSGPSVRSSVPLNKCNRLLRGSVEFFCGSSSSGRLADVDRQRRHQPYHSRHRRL
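Cruzain (1.5 nM) preincubated 15 min at RT with compound in 100 mM sodium acetate pH 5.5, 5 mM DTT, 0.01% Triton X-100. Reaction started with 2 uM Z-FR-AMC; AMC fluorescence (ex 360/em 450 nm) change over 60 s gave rate.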
Cruzain noTriton: blocks cruzain activity in detergent-free assay; AID 1476; purified cruzain, Z-FR-AMC fluorescence, no detergent; P25779; 200,000 compounds, 2.3% hits; Potency, µM, for inactives: max response, negative = inhibition, actives largely listed as inhibitors; active = well fitted curve in the direction sought with a large enough effect; inconclusive = small, poorly fitted or top-dose-only effect, or another doubt; inactive = no such curve, though single readings can be large; an effect the other way counts as inactive or inconclusive;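 also: plate controls were enzyme without inhibitor for no effect and buffer without enzyme for full effect; nearly all actives have a fitted effect of over 40% in size; top concentration of the series not given in the record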
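Detergent-free condition (0.00005% Triton X-100) in acetate buffer pH 5.5 with DTT. 1.5 nM enzyme and compound were pre-mixed 15 min, then 2 uM Z-FR-AMC substrate added; reaction progress from fluorescence change between first and third reads (60 s).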
2A StopGo: lowers the luciferase signal of an FMDV 2A StopGo reporter | human cells with a luciferase reporter of 2A StopGo recoding; control for the full effect not named in the record | Potency, µM (series often up to 57.9 µM), for inactives: top-dose signal change, negative = less light | 410,000 compounds, 1.2% hits | AID 1159524; active = well fitted falling curve with a large enough effect; inconclusive = small, poorly fitted or top-dose-only effect; inactive = no such curve, though single readings can be large or run the other way; tested in HEK293T cells; also: % is scaled to controls: 0 for no effect and ±100 for the full control effect; nearly all actives have a fitted effect of over 45% in size; luciferase light after 4 h
MARV entry inh: Marburg virus entry inhibition | AID 540276 | 300,000 compounds, 1.8% hits | Potency, µM (top dose mostly 37.8 µM), inactives show top-dose activity change, negative = inhibition, usual class: inhibitors | Marburg virus pseudotyped entry inhibition, cell reporter; control for the full effect not named in the record; about a third of the inactives were read at about 46 µM; active = well fitted inhibition curve with a large enough effect; inconclusive = small, poorly fitted or top-dose-only effect, or effect the other way; inactive = flat fitted curve, though single readings scatter; tested in HEK293 cells; about a fifth of its hits are not listed in these tables; also: % is scaled to controls: 0 for no effect and ±100 for the full control effect; luciferase read-out
RE007 growth inh: less growth of the S. pombe RE007 Vpr strain; S. pombe RE007 Vpr strain, BacTiter-Glo ATP luminescence, 24 h; control for the full effect not named in the record; Potency, µM (doses to about 92.2 µM), for the others: at the highest dose activity change, negative = less growth; 360,000 compounds, 0.21% hits; AID 651644; active = well fitted falling curve with a large enough effect; inconclusive = small, poorly fitted or top-dose-only effect; inactive = no such curve, though single readings can be large or run the other way;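 also: % is scaled to controls: 0 for no effect and ±100 for the full control effect; nearly all actives have a fitted effect of over 50% in size; the assay follows cell death caused by Vpr and the record does not say whether a fall means rescue or toxicity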
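Fission yeast strain RE007, carrying one chromosomally integrated HIV-1 vpr copy, was seeded at OD 0.01 in PMG+AL medium with 23 nL pinned compound. After 24 h at 30 °C and 99% humidity, viability was read by BacTiter-Glo luminescence.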
LASV entry inh: inhibitors of Lassa virus binding or cell entry. Lassa virus pseudotype entry inhibition, cell reporter; control for the full effect not named in the record. Potency, µM (highest dose often 37.9 µM), for inactives: at the highest dose activity change, negative = inhibition, most hits filed as inhibitors. 300,000 compounds, 1.2% hits; active means well fitted inhibition curve with a large enough effect; inconclusive means small, poorly fitted or top-dose-only effect, or effect the other way; inactive means flat fitted curve, though single readings scatter; tested in HEK293 cells; also: % is scaled to controls: 0 for no effect and ±100 for the full control effect; nearly all actives have a fitted effect of over 50% in size; luciferase read-out
SARS PLpro yeast: inhibitors of SARS-CoV papain-like protease in yeast; S. cerevisiae expressing SARS-CoV PLpro, growth rescue; control for the full effect not named in the record; Potency, µM (top dose mostly 32.9 µM), for inactives: at the highest dose activity, positive = growth rescue; 330,000 compounds, 0.19% hits; also: 0% is about no effect; nearly all actives have a fitted effect of over 55% in size; growth read by luminescence after 48 h
NS1 function inh: influenza NS1 inhibition; 270,000 compounds, 0.4% hits; Potency, µM (highest dose often 46.1 µM), without a hit: at the top dose activity, positive = more growth; S. cerevisiae slowed by influenza A NS1, growth recovery by OD600; also: actives are rising curves; nearly all actives have a fitted effect of over 50% in size
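A cell-based growth assay was used: compounds that relieve NS1-induced slow growth of budding yeast raise OD600. Assay medium was yeast nitrogen base with ammonium sulphate and -URA supplement, pH 6.0, with 2% galactose.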
* marks the source's active call; other numbers are inactive results; ? = inconclusive; nt = no result given; & = joins results of further samples; [ ] = remark or other dose. Unless noted, calls follow the shape of the dose curve; as a rule, active means well fitted rising curve with a large enough effect; inconclusive means small, poorly fitted or top-dose-only effect; inactive means no such curve, though single readings can be large or run the other way. Potency is read from the fitted curve at half-maximal effect.

entry	molecule	Cruzain inh Det	Cruzain noTriton	2A StopGo	MARV entry inh
1	O=C(CC1(CC(=O)N2CCOCC2)CCCC1)Nc1ccc(F)cc1	nt	nt	3%	?
2	O=C(c1cc(COc2ccc(F)cc2Cl)on1)N1CCCCC1c1cccnc1 (stereo not given)	nt	nt	2%	nt
3	Cc1ccccc1OC(C)C(=O)NC1CCCC1 (stereo not given)	3.1%	-4%	6%	11%
4	CC1Cc2ccccc2N1C(=O)CCS(=O)(=O)c1cccc2nonc12 (stereo not given)	1.3%	-9%	-5%	nt
5	CCCCCCCC(=O)Nc1cc(C(=O)NCc2ccc(C)cc2)ccc1N1CCC2(CC1)CC(c1ccccc1)=NO2	nt	nt	-23%	nt
6	Cc1ccc(S(=O)(=O)N2CCCC(C(=O)Nc3ccc(NC(=O)c4ccccn4)cc3)C2)cc1 (stereo not given)	-7.5%	16%	44%[activator]	-3%
7	COc1ccccc1CN(Cc1nc2ccccc2c(=O)[nH]1)C(=O)Nc1ccccc1	-1.1%	3%	-4%	-2%&-9%
8	COc1ccc(CCN=C(N)NS(=O)(=O)c2ccccc2)cc1	-1.2%	-1%	-17%	?
9	Cc1cccc(C)c1NC(=O)CCS(=O)(=O)c1ccc2c(c1)n(C)c(=O)c(=O)n2C	-1.9%	1%	-17%	17%[46.1 µM]
10	CCCCC(CC)Cn1c2nc3ccccc3nc2c2c(=N)oc(C)nc21 (stereo not given)	-4.6%	?	nt	nt

entry	RE007 growth inh	LASV entry inh	SARS PLpro yeast	NS1 function inh
1	4%	4%[46.1 µM]	4%	nt
2	-4%	nt	-10%	-16%
3	4%	1%	6%	-6%
4	-4%	-1%	20%	-8%
5	-13%	nt	4%	6%
6	12%	2%	?	1%
7	-8%	11%	-3%	-4%
8	13%	2%	-7%	3%
9	nt	11%[46.1 µM]	nt	nt
10	nt	nt	-4%	-46%

The list continues.
entry	molecule	Cruzain inh Det	Cruzain noTriton	2A StopGo	MARV entry inh
11	CCCCN1C(=O)C(O)=C(C(C)=O)C1c1ccccc1[N+](=O)[O-] (stereo not given)	nt	nt	1%	nt
12	COc1ccc(NC(=O)Nc2cc(C(C)(C)C)on2)cc1OC	nt	nt	-6%	nt
13	CCc1ccc2occ(CC(=O)Nc3c(C(=O)Nc4ccc(OC)cc4)oc4ccccc34)c2c1	-3.6%	-6%	-11%	-4%[46.1 µM]
14	Cc1nc(S(=O)(=O)c2ccc(Cl)cc2)nc2c1CCC2	4.7%	5%	2%	-7%
15	Cc1ccc(C)c(N2CCN(S(=O)(=O)c3ccc4c(c3)CC(=O)N4C)CC2)c1	nt	nt	-13%&-24%	2%&2%[46.1 µM]
16	O=C(CCN1C(=O)COc2ccccc21)NCCCN1CCc2ccccc2C1	0.1%	0%	13%	-2%
17	CC(=O)Oc1ccc2c(c1)OC(c1ccccc1)CC21CC(C)(C)NC(=S)N1 (stereo not given)	-2.1%	5%	?	-1%
18	CCOC(=O)NC(=O)C(=CNc1cccc(C)c1)C(=O)NC(=O)OCC	-4.5%	-6%	-7%	25%[46.1 µM]
19	CCOC(=O)c1c(N)sc(C(C)=O)c1C	-1.8%	4%	7%	7%
20	CCOC(=O)c1c(C(F)(F)F)nc2ncccn12	0.5%	1%	10%	-10%[46.1 µM]

entry	RE007 growth inh	LASV entry inh	SARS PLpro yeast	NS1 function inh
11	8%	nt	-1%	3%
12	1%	nt	-4%	-30%
13	nt	-19%[46.1 µM]	nt	nt
14	1%	1%	-4%	2%
15	12%	1%&27%[46.1 µM]	21%	11%
16	-1%	-3%	-4%	-5%
17	18%	-6%	-9%	-4%
18	1%	?	29%	-8%
19	-15%	6%	-8%	-46%
20	-14%	6%	3%	2%

(more compounds)
entry	molecule	Cruzain inh Det	Cruzain noTriton	2A StopGo	MARV entry inh
21	Cc1cccn2c(=O)c(/C=C(\C#N)S(=O)(=O)c3ccccc3)c(N3CCN(Cc4ccccc4)CC3)nc12	nt	nt	5%	nt
22	Cc1ccc(NC(=O)Cn2ccc([N+](=O)[O-])n2)cc1Cl	nt	nt	-16%	?
23	COC(=O)c1n[nH]n(-c2ccccc2)c1=O	0.4%	-10%	-6%	0%[46.1 µM]
24	O=C(O)CCc1ccc(-c2ccc(Br)cc2)o1	-1.1%	-1%	18%	-4%
25	COc1ccccc1C(=O)OCC(=O)c1cccc([N+](=O)[O-])c1	-2.7%	1%	-15%	1%
26	O=[N+]([O-])c1ccc(O)c(/C=N/n2c(CO)nc3ccccc32)c1	nt	nt	-4%	nt
27	O=C(NC(=O)c1ccccc1Cl)C(=O)Nc1ccc(Cl)cc1	nt	nt	-2%	?
28	Cc1cccc(NC(=O)/C(=C\c2cccs2)NC(=O)c2ccccc2)c1	2.9%	-14%	-7%	-7%
29	COC(=O)Cc1n[nH]c(=S)[nH]c1=O	1.9%	10%	10%	0%
30	O=C(NCCN1CCOCC1)C1CC(=O)N(c2ccc(Cl)cc2)C1 (stereo not given)	nt	nt	21%	9%[46.1 µM]

entry	RE007 growth inh	LASV entry inh	SARS PLpro yeast	NS1 function inh
21	-3%	nt	3%	14%
22	-19%	-4%[46.1 µM]	0%	nt
23	nt	6%[46.1 µM]	nt	nt
24	?	5%	-28%	-222%
25	-17%	-3%	1%	-3%
26	-17%	nt	-5%	-45%
27	2%	22%	0%	7%
28	0%	3%	4%	9%
29	2%	3%	6%	-4%
30	-20%	-10%[46.1 µM]	1%	-4%

The results go on.
entry	molecule	Cruzain inh Det	Cruzain noTriton	2A StopGo	MARV entry inh
31	COc1ccc(CSc2nc3ccncc3n2CC(=O)Nc2ccc(C)c(F)c2)cc1	-13%	8%	56%[activator]	17%[46.1 µM]
32	CCOc1ccc(NC(=O)c2oc3ccccc3c2NC(=O)COc2cccc(OC)c2)cc1	-1.6%	9%	-19%	-4%[46.1 µM]
33	CS(=O)(=O)N1CCC(N2CCN(Cc3ccc(F)cc3)C(=O)C2=O)CC1	3.3%	-10%	1%	nt
34	COc1ccccc1C(=O)N1CCN(S(=O)(=O)Cc2ccccc2)CC1	-0.9%	13%	-14%	9%
35	CCOc1ccc2ncc(S(=O)(=O)c3ccccc3)c(N3CCN(c4ccccc4)CC3)c2c1	nt	nt	?	1%[46.1 µM]
36	COCCNC(=O)CCn1c(=O)c2cc(OC)c(OC)cc2n(CC(=O)Nc2ccc(F)c(Cl)c2)c1=O	0.4%	10%	-11%	14%[46.1 µM]
37	CN1C(=O)CSc2ccc(NC(=O)NCCC3=CCCCC3)cc21	-9.1%	-15%	nt	0%
38	COc1ccc(Cc2nnc(NC(=O)Nc3ccccc3)s2)cc1OC	nt	nt	-12%	?
39	CCOC(=O)c1cccc(NC(=O)c2cc(S(=O)(=O)N3CCCC3)cn2C)c1	-3.1%	-6%	10%	nt
40	COc1ccc(N2CCN(S(=O)(=O)c3ccc(Br)s3)CC2)cc1	-2.3%	-4%	-15%	9%

entry	RE007 growth inh	LASV entry inh	SARS PLpro yeast	NS1 function inh
31	nt	30%[46.1 µM]	nt	nt
32	nt	?	nt	nt
33	nt	4%[46.1 µM]	nt	nt
34	34%	21%	-3%	2%
35	7%	-2%	nt	nt
36	nt	23%[46.1 µM]	nt	nt
37	12%	-26%	3%	-28%
38	-1%	-25%	1%	-1%
39	nt	4%[46.1 µM]	nt	nt
40	10%[3.69 µM]	2%	-9%	7%

The list goes on (4 carried over from the part before).
entry	molecule	Cruzain inh Det	Cruzain noTriton	2A StopGo	MARV entry inh
37	CN1C(=O)CSc2ccc(NC(=O)NCCC3=CCCCC3)cc21	-9.1%	-15%	nt	0%
38	COc1ccc(Cc2nnc(NC(=O)Nc3ccccc3)s2)cc1OC	nt	nt	-12%	?
39	CCOC(=O)c1cccc(NC(=O)c2cc(S(=O)(=O)N3CCCC3)cn2C)c1	-3.1%	-6%	10%	nt
40	COc1ccc(N2CCN(S(=O)(=O)c3ccc(Br)s3)CC2)cc1	-2.3%	-4%	-15%	9%
41	Cc1cccc(NC(=O)C2(c3cccs3)CCOCC2)n1	-1.6%	3%	-26%	3%
42	CCN(CC)CCCN1C(=O)C(=O)/C(=C(/O)c2ccccc2)C1c1cc(OC)ccc1OC (stereo not given)	-10%	7%	5%	?
43	O=P(O)(CP(=O)(c1ccccc1)c1ccccc1)c1ccccc1O	5.4%	-9%	6%	-3%
44	CCOc1ncccc1C(=O)N1CCN(S(=O)(=O)c2ccccc2)CC1	nt	nt	12%	-16%[46.1 µM]
45	CCOC(=O)N1CCC(N2Cc3cccc(C(=O)O)c3C2=O)CC1	2.7%	-5%	-24%	nt
46	Cc1cc(Cl)c(S(=O)(=O)N2CCCCCC2)cc1OCC(N)=O	2.1%	-5%	?	-11%[46.1 µM]
47	CCN(CC)C(=O)CSc1nnc(-c2ccccn2)n1Cc1ccccc1	nt	nt	1%	-17%[46.1 µM]
48	O=C(Nc1ccc2nc(SCC(=O)N3CCc4ccccc43)sc2c1)c1cccc(F)c1	-2.8%	?	-12%	-8%[46.1 µM]
49	Cc1cc(C)cc(NC(=O)CSc2nnc(-c3ccc(S(=O)(=O)N4CCCC4)cc3)o2)c1	0.0%	-2%	-10%	?

entry	RE007 growth inh	LASV entry inh	SARS PLpro yeast	NS1 function inh
37	12%	-26%	3%	-28%
38	-1%	-25%	1%	-1%
39	nt	4%[46.1 µM]	nt	nt
40	10%[3.69 µM]	2%	-9%	7%
41	2%	7%	-7%	2%
42	-16%	14%	0%	2%
43	3%	-1%	3%	6%
44	-15%	3%	0%	nt
45	19%	nt	3%	0%
46	-12%	1%	-4%	-18%
47	5%	-3%	0%	0%
48	nt	-14%[46.1 µM]	nt	nt
49	-17%	18%[14.3 µM]	-1%	-1%

High-throughput results as filed in PubChem BioAssay.
